From PubChem BioAssay
Mtb betalactam: beta-lactam sensitization of Mtb H37Rv; M. tuberculosis H37Rv growth with meropenem, percent inhibition; hits of this screen are not shown here; inhibition, % at 25 µM; 330,000 tested, 0.27% active;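 active = about 74% or more and at least 40 points above the plate without the antibiotic, then above 30% in a dose series; inconclusive = first-round hits that could not be retested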;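 also: growth measured after seven days incubation then overnight dye step; 0% = bacteria only wells and 100% = bacteria with antibiotic; twin plates without the antibiotic show which effects depend on it; some results filed as inactive read as strong as hits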
YopH PTP inh: blocks Yersinia enterocolitica YopH tyrosine phosphatase; inhibition, %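 (about 10 µM by stock and volumes)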; AID 898; fluorescence Ex485/Em525; 140,000 tested, 0.16% active;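 active = inhibition of 50% or more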;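 also: controls were vehicle for no effect and minimum signal wells for full effect; inactives centre near -20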
Arbovirus inh: blocks arbovirus infection | arbovirus infection cell-based antiviral screen | inhibition, % at 10 µM | 200,000 tested, 0.37% active | AID 1251;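 active = inhibition from about 30%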;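 also: bluetongue infection of BSR cells; cell survival read as ATP light after 72 h; 0% = infected wells without compound and 100% = uninfected wells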
RecA intein inh: Mtb RecA intein splicing inhibition | AID 2221 | inhibition, %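 (about 9 µM by stock and volumes)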 | cell-free RecA intein splicing, fluorescence | 290,000 tested, 0.75% active | P9WHJ3; in the data active = inhibition above about 30%; inconclusive = no clear call, values can overlap the other calls;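 also: 0% = vehicle wells and 100% = reference inhibitor control wells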
Target sequence (P9WHJ3 whole entry, looked up): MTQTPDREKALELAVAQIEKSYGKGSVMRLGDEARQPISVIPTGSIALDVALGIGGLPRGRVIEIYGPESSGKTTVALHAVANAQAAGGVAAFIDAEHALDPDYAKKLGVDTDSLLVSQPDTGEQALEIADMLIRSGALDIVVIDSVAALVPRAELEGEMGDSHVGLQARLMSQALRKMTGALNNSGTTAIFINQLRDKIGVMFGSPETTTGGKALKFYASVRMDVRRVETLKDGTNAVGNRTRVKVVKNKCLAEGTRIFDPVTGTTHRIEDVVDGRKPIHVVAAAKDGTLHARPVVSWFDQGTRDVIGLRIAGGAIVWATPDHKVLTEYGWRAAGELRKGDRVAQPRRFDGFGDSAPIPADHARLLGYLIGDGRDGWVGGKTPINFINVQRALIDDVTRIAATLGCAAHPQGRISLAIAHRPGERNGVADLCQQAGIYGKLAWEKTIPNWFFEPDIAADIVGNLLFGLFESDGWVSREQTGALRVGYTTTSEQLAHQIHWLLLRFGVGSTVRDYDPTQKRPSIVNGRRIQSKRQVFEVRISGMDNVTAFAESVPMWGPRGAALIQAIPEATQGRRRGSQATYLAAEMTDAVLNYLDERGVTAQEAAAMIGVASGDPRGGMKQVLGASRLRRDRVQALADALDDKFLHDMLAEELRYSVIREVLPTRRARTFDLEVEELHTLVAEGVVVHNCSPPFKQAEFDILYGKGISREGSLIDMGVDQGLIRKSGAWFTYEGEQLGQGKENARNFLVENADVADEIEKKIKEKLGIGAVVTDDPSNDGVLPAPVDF
Mtb H37Rv: M. tuberculosis H37Rv growth inhibitors, H37Rv strain (AID 1626) | M. tuberculosis H37Rv growth inhibition; higher % means a stronger effect | inhibition, % at 10 µM; hits with a dose series show IC50 in µM | 220,000 tested, 0.95% active;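 active = confirmed in a dose series; inconclusive = inhibition above 80% but not taken into the dose series; inactive = below 80% or under 30% at every dose of the series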;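 also: bacteria incubated seven days before Alamar blue readout; 0% = bacteria only wells and 100% = bacteria with antibiotic wells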
Arbovirus inh repeat: second read-out of Arbovirus inh, no call of its own (marks repeat the call); inhibition, %; measured here: 10K subset replicate screen; many hits read low in the repeat;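 first of two repeat runs on a subset; 0% = infected and 100% = uninfected wells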
* hit, by the source's call; u = inconclusive; x = not tested or not shown.

SMILES	Mtb betalactam	YopH PTP inh	Arbovirus inh	RecA intein inh	Mtb H37Rv	others
COc1ccc(OC2CCN(S(=O)(=O)c3ccc(OC)c(OC)c3)CC2)cc1	3	x	x	3.4	x
CC(C)(C)c1ccc(OCC(=O)NC2CCS(=O)(=O)C2)cc1 (configuration not stated)	-6	-1	1	0.5	-6%
O=C(CSc1cccc(C(F)(F)F)c1)N1CCN(S(=O)(=O)c2ccccc2)CC1	5	-32	-4	2.3	-8%
CC(NS(=O)(=O)OCC(Cl)(Cl)Cl)c1ccccc1 (configuration not stated)	34	x	x	-0.2	x
CCOc1ccc(Nc2nc(C)cc(C)c2C#N)cc1	6	30	5	-6.5	7%
Cc1ccccc1NC(=O)C(=O)N/N=C/c1cccc(Br)c1	-4	-22	-4	0.6	0%
Cc1cc(Sc2ncnc(N)c2[N+](=O)[O-])ncn1	97	x	-18	6.2	u
COc1ccc(CCNC(=O)Cn2c(=O)c3cccn3c3cccnc32)c(OC)c1OC	0	x	x	-1.2	x
COc1cccc(-c2nnc(SCc3ccccn3)n2C)c1	-2	-12	8	0.1	-3%
CCCCC(Nc1ncnc2ccccc12)C(=O)O (configuration not stated)	-5	-25	4	1.9	3%
O=C(NN1C(=O)/C(=C/C=C/c2ccco2)SC1=S)c1ccccc1O	-3	x	x	-4.6	-9%
CCOC(CNc1ncnc2sc(-c3ccccc3)cc12)OCC	66	x	x	12	x
COc1ccc(Cl)cc1N(CC(=O)Nc1ccc2c(c1)OCO2)S(C)(=O)=O	7	-38	-5	-3.4	1%	Arbovirus inh repeat=-3
O=C(O)c1ccc2cccnc2n1	-2	x	-2	2.8	-2%
Cc1cc2c(c(=O)n1CCc1ccccc1)C(c1ccco1)C(C#N)=C(N)O2 (configuration not stated)	2	-24	6	-2.4	-7%
Cc1cc(C)c(S(=O)(=O)c2c(C)cccc2C)c(Cl)n1	-1	-21	-2	3.4	3%
Cn1nc(C(C)(C)C)cc1C(=O)NCc1cc(F)cc2c1OCOC2	-8	x	x	2.3	-10%
O=C(Nc1ccccc1C(=O)O)c1ccc(N2C(=O)C3CC=CCC3C2=O)cc1 (configuration not stated)	-1	x	x	-1.0	x
Cc1ccccc1NC(=O)N1C2CCCC1CC(NC(=O)C1CC1)C2 (configuration not stated)	u	-20	4	8.1	-10%
O=S(=O)(Nc1cccc2cccnc12)c1ccc(S(=O)(=O)N2CCCC2)cc1	87	-24	-35	19	3%
C=C(C)C1CC=C(C)/C(=N\NC(=O)CNc2ccccc2OC)C1 (configuration not stated)	-2	-26	-8	-0.7	1%
Cn1c(=O)c2c(ncn2CCCl)n(C)c1=O	1	x	-3	2.5	-3%	Arbovirus inh repeat=-1
COc1ccc(C)cc1NC(=O)C1CC(=O)OC12CCCCC2 (configuration not stated)	-3	-8	-2	-0.1	1%
Cc1cc(C)cc(NC(=O)c2cnn(-c3ccccc3)c2C2CCNCC2)c1	2	x	6	1.1	8%
O=C(Nc1nnc(-c2ccco2)o1)c1ccc(N2C(=O)CCC2=O)cc1	-1	x	15	-0.1	-1%
Next structures follow.
SMILES	Mtb betalactam	YopH PTP inh	Arbovirus inh	RecA intein inh	Mtb H37Rv	others
CC(C)n1nc(C(=O)Nc2ccccc2N2CCOCC2)c2ccccc2c1=O	8	-23	-10	1.5	-6%
CCCN(CC#CC(O)(c1ccccc1)c1cccnc1)CCC (configuration not stated)	5	x	4	-2.5	-16%
CCN(CC)CCNc1nc(-c2ccco2)c2c(c1C#N)CC(C)(C)OC2	0	1	-4	-3.6	-3%
Cc1ccc(CNC(=O)c2nc3nc(C)cc(C)n3n2)cc1	-10	-9	-7	-4.0	-1%
COc1ccc(C)cc1NC(=O)CCCN1C(=O)C2CC=CCC2C1=O (configuration not stated)	u	x	x	2.2	x
O=C(NNC(=O)c1ccccc1F)c1cccc(Cl)c1	u	7	5	-1.6	-4%
O=S(=O)(c1ccccc1F)N1CCc2ccccc2C1	5	x	x	-1.8	x
O=C(OCc1nnc(-c2ccccc2)o1)c1cc(=O)[nH]c2ccccc12	-2	x	x	-0.6	x
Cc1ccccc1C(=O)Nc1nnc(-c2ccco2)s1	-5	x	-10	-2.7	6%
COc1ccc(/C=C/C(=O)CC(O)(c2ccccc2)C(F)(F)F)cc1 (configuration not stated)	64	26	-17	-0.2	4%
COc1cc(CN2CC(=O)N(c3cc(Cl)ccc3C)C2=S)cc(OC)c1OC	3	x	x	-3.5	x
Cc1ccccc1/C=N/N1C(=O)CSC1=S	0	x	x	-4.0	x
Cc1ccccc1CC1(CO)CCCN(Cc2ccc3c(c2)OCCO3)C1 (configuration not stated)	-7	x	0	0.0	4%
Cc1cc(Cl)c(O)c(-n2nc3ccccc3n2)c1	-5	x	x	-0.9	-8%
CN(C)CC1CCCCC1OC(=O)c1ccc(Cl)cc1 (configuration not stated)	2	15	6	-2.3	5%
CCNc1nc(Cl)nc(N(NC(C)=O)C(C)C)n1	-4	x	x	-0.5	-8%
Cc1nc2ccccc2n1C1CC(=O)N(N(C)C)C1=O (configuration not stated)	3	-4	0	-1.5	-2%
CCOC(=O)C1CCN(C(c2cccc(F)c2)c2sc3nc(C)nn3c2O)CC1 (configuration not stated)	-7	-27	7	-0.6	-6%
COc1cc(CCC(=O)Nc2nnc(C)s2)cc(OC)c1OC	0	x	x	-0.3	x
CC(=O)N1CCOc2ccc(S(=O)(=O)N3CCC(C(=O)Nc4ccc(C)c(C)c4)CC3)cc21	-3	x	x	-0.6	x
COC(=O)c1cc(NC(=O)C(C)c2ccc(CC(C)C)cc2)ccc1O (configuration not stated)	-12	x	4	x	2%
COc1ccc2c(c1)C=C(C(=O)NCc1ccc(Cl)cc1)CO2	1	-8	1	7.7	-5%
CCn1c(O)c(/C=N/N=C2CCCCC2)c2cc(C3=NNC(=O)CC3)ccc21	0	x	x	-16	-6%
COc1ccc(/C=C/C(=O)Nc2ccccc2C(=O)NCC(c2ccc(OC)cc2)N(C)C)cc1 (configuration not stated)	9	x	x	3.8	x
NS(=O)(=O)c1cccc(NC(=O)CNC(=O)CC23CC4CC(CC(C4)C2)C3)c1	-11	x	0	1.9	1%
Next records:
SMILES	Mtb betalactam	YopH PTP inh	Arbovirus inh	RecA intein inh	Mtb H37Rv	others
CCCc1cc(=O)[nH]c(SCC(=O)N(CC)C2CCS(=O)(=O)C2)n1 (configuration not stated)	-4	-18	4	2.0	-4%
CCOCCCNCC(=O)N1CCN(S(=O)(=O)c2ccc(C)cc2)CC1	-11	3	3	-6.7	-18%
CSc1ccccc1NC(=O)CN(C)CC(=O)NCc1ccccc1	4	x	2	-0.7	5%
COc1ccc(CNC(=O)C/C(C)=N/NC(=O)COc2ccc(Br)cc2)cc1	6	x	7	-1.5	-6%
COc1ccc(C2NC(=O)c3ccccc3O2)c(OC)c1OC (configuration not stated)	-1	-30	11	1.5	2%
Cc1ccc(C(=O)COC(=O)CCC(=O)NC2CCCCC2)cc1C	-5	-10	2	0.3	-4%
CCOc1cc(C2c3c(oc4ccccc4c3=O)C(=O)N2c2nccs2)ccc1O (configuration not stated)	1	x	x	-2.3	-7%
COCCn1c(SCC(=O)NC2CC2)nnc1-c1ccco1	-4	x	x	-1.8	x
Cc1nn(C)c(C)c1S(=O)(=O)N1CCc2ccccc21	-12	-44	-5	2.0	-3%
O=C(CC1C(=O)NCCN1Cc1ccc(F)cc1)NCCOc1cccnc1 (configuration not stated)	-8	x	5	0.2	-3%
CC1CCC(NC(=O)C2CCN(c3cnccn3)CC2)CC1 (configuration not stated)	12	-17	0	-0.6	-6%
CC(=O)CS(=O)(=O)c1ccc(Oc2ccc(S(=O)(=O)CC(C)=O)cc2)cc1	-9	-26	-4	2.0	-2%
Cc1c(N=C2SC(CC(=O)Nc3ccccc3)C(=O)N2CCN2CCOCC2)c(=O)n(-c2ccccc2)n1C (configuration not stated)	-9	x	-1	-1.3	-2%
Cn1nc(CC(=O)NC2CCCCCC2)c2ccccc2c1=O	-1	-11	12	0.0	0%	Arbovirus inh repeat=7
COc1ccc(C)cc1NC(=O)CSc1nc2ccccc2nc1N1CC(C)OC(C)C1 (configuration not stated)	-1	x	x	11	x
Cc1cc(-c2ccccc2)nc(Oc2cccc(C(F)(F)F)c2)c1S(C)(=O)=O	-4	-6	-2	2.5	-11%
Nc1cc(=O)n(Cc2ccccc2)c(=O)n1-c1ccc(F)cc1	-1	x	x	0.3	-4%
COCc1cc(C)nc(Nc2ccc(C)cc2C)c1C#N	-7	10	1	-3.0	1%	Arbovirus inh repeat=-1
Brc1ccc(Oc2ncc(CN3CCN(c4ccccc4)CC3)s2)cc1	2	9	0	1.1	2%
O=C(CCCN1CCOCC1)c1ccc2c(c1)OCCO2	2	-51	-2	-0.1	-1%
COc1ccc(Cl)cc1NC(=O)CN1CCc2ccccc2C1	-2	x	x	3.4	x
COc1cccc(Cl)c1NC(=O)N1CCN(c2cc(C)nc3ccccc23)CC1	5	x	x	-3.0	7%
CCCC1=Nc2cc(C(=O)NCCN3CCCC3)ccc2Sc2ccccc21	7	x	x	5.2	x
O=C(Cc1cc(C(=O)O)c2ccccc2n1)Nc1ccccc1	-10	x	7	-0.5	-4%
Cc1ccc(N(C(=O)c2csnn2)C(C(=O)NC2CCCCC2)c2cccnc2)cc1C (configuration not stated)	-8	x	x	-1.1	x

Reprinted at random: 5 entries already listed.
SMILES	Mtb betalactam	YopH PTP inh	Arbovirus inh	RecA intein inh	Mtb H37Rv	others
CC1CCC(NC(=O)C2CCN(c3cnccn3)CC2)CC1 (configuration not stated)	12	-17	0	-0.6	-6%
COc1ccc(C2NC(=O)c3ccccc3O2)c(OC)c1OC (configuration not stated)	-1	-30	11	1.5	2%
COc1ccc(C)cc1NC(=O)CSc1nc2ccccc2nc1N1CC(C)OC(C)C1 (configuration not stated)	-1	x	x	11	x
Brc1ccc(Oc2ncc(CN3CCN(c4ccccc4)CC3)s2)cc1	2	9	0	1.1	2%
COc1cccc(Cl)c1NC(=O)N1CCN(c2cc(C)nc3ccccc23)CC1	5	x	x	-3.0	7%

Later entries.
SMILES	Mtb betalactam	YopH PTP inh	Arbovirus inh	RecA intein inh	Mtb H37Rv	others
Cc1ccc(C)c(C(=O)CC2(O)C(=O)N(C)c3ccccc32)c1 (configuration not stated)	-1	-20	-8	0.4	-2%	Arbovirus inh repeat=3
CCOC(=O)C[C@H]1c2ccc(C(F)(F)F)cc2S(=O)(=O)N1c1ccccc1	-2	x	x	-2.8	-6%
CCOc1nc(N(C)C)nc(-n2nnc(C(C)=O)c2C)n1	1	-19	-7	-1.5	14%
O=C(CCc1nnc(C2(c3ccc(Cl)cc3)CCC2)o1)N1CCCC1	7	x	x	-0.1	x
COc1ccc(CC(=O)Nc2cccc(C(=O)Nc3ccccc3C(=O)O)c2)cc1OC	4	-16	15	1.1	-6%
COc1cccc(N(C(=O)c2snc(C(N)=O)c2N)C(C(=O)NCC2CCCO2)c2cccs2)c1 (configuration not stated)	6	x	x	0.5	x
CC(C)c1cc2cc3ccc(=O)oc3cc2o1	7	x	x	-1.8	x
O=C(NCc1ccc(Cl)cc1)C1CCN(S(=O)(=O)c2cccc3nonc23)CC1	2	x	x	-1.8	x
Cc1ccc(NC(=O)CCc2nnc3ccc(NCc4ccco4)nn23)cc1F	6	x	x	0.6	x
Cc1ccc(S(=O)(=O)CCC(=O)Nc2nnc(-c3ccc(F)cc3)o2)cc1	91	x	x	0.2	x
O=C(NCc1ccc(Cl)cc1)c1cnccn1	-1	-13	1	x	-1%
CCOC(=O)c1cccc(-n2c(C)cc(C=O)c2C)c1	-5	-15	-18	-1.3	4%
Cc1ccc(N=C2NC(=O)c3cc([N+](=O)[O-])ccc32)cc1	-3	-18	-7	-5.3	8%
COc1cccc(C(=O)NCCS(=O)(=O)N2CCCCCC2)c1	-17	x	x	-1.5	x
CCCn1nnnc1NC(=O)COc1ccc(Cl)c(C)c1	-3	18	7	-0.1	1%
CCOC(=O)c1[nH]c2cc3c(cc2c1NC(=O)CN1CC(C)CC(C)C1)OCO3 (configuration not stated)	-7	-50	-7	-1.1	x
Brc1ccc(OCc2nc3ccccc3[nH]2)cc1	-4	x	x	-1.6	x
COc1cccc2c1C(=O)c1c(O)c3c(c(O)c1C2=O)C[C@@](O)(C(C)=O)C[C@@H]3O[C@H]1C[C@H](N)[C@H](O)[C@H](C)O1	x	17	-45	x	x
CCOc1ccc(NS(=O)(=O)c2ccc(OCC(=O)N3CCCC3)cc2)cc1	1	-19	3	0.6	-4%
O=C1CN(C(=O)CCCc2c[nH]c3ccccc23)c2ccccc2N1	3	-25	1	3.5	4%
CCn1nc(C)c(NS(=O)(=O)c2ccccc2)c1C	3	17	8	2.2	11%

An excerpt; count on the stated rates, not on these rows.
